# Source: PubChem BioAssay (National Center for Advancing Translational Sciences (NCATS))
# miR-21 FLuc = miR-21 reporter, rising signal; AID 2288; HeLa miR-21 FLuc reporter, luciferase, 48 h; 340,000 tested, under 10 active; Potency, µM (series often up to 38.3 µM), inactives show at the highest dose reporter change, positive = more light; active = well fitted rising curve with a large enough effect; inconclusive = small, poorly fitted or top-dose-only effect; inactive = no such curve, though single readings can be large or run the other way;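 note: % of control where 0% means no effect; miR-21 action dims this reporter so a rising signal means less miR-21 action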
#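 HeLa cells endogenously expressing miR-21, stably carrying CMV-driven firefly luciferase with a downstream miR-21 binding site, 2000 cells/well. Titrations up to approximately 40 uM, 48 hours; luciferase luminescence read.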
# GLA inh pH 4.5 = alpha-galactosidase A (human) inhibition, pH 4.5; P06280; purified enzyme, 4-MU-alpha-Gal fluorescence, pH 4.5; activity change, negative = inhibition, % at 105 µM; 230,000 tested, under 10 active; AID 1467; inconclusive = small, poorly fitted or top-dose-only inhibition, or a rising curve; inactive = flat fitted curve, though single readings scatter; no compound was filed as active;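 note: 0% = full activity with enzyme and -100% = basal without enzyme; dose as in the result columns while the protocol names 77 µM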
# Rango-impB inh = prevents formation of the Rango-importin beta complex | AID 540263 | Rango CFP/YFP FRET sensor + importin beta, 45 min | 340,000 compounds, 0.031% hits | Q14974 | Potency, µM (titrated, usually from 92.2 µM), without a hit: top-dose inhibition of complex formation; active = rising FRET ratio curve, often small or poorly fitted; inconclusive = mostly compound fluorescence or quenching in the first reads; inactive = flat curves in all reads;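 note: potency is the fitted concentration of half-maximal effect; 0% = DMSO wells and 100% = buffer wells lacking importin beta; nearly all actives have a fitted effect of over 15% in size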
# Target sequence (Q14974 whole entry, looked up): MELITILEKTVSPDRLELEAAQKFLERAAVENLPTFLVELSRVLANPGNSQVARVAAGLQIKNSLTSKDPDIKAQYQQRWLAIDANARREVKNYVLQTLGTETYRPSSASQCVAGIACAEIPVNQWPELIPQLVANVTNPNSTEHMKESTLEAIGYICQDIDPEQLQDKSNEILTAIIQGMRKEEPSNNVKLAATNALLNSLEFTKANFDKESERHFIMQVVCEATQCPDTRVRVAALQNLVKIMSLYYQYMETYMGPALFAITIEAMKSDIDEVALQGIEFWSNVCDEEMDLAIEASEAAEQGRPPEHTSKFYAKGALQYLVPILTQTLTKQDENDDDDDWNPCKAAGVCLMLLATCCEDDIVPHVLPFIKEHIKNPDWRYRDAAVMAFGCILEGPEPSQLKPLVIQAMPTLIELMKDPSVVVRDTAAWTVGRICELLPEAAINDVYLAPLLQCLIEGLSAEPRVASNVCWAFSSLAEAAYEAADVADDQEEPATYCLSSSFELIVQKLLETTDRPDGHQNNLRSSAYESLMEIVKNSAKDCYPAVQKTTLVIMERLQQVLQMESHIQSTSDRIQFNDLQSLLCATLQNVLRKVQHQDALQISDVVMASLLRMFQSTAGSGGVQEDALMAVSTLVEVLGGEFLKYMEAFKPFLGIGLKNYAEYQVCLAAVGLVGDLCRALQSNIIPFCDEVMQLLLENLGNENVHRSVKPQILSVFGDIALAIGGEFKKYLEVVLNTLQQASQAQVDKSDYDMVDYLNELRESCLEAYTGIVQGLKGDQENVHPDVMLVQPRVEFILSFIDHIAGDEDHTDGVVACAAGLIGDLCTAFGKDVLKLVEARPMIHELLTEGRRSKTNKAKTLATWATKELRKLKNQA
#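 Inhibition scored from the CFP 486 nm/YFP 530 nm FRET ratio 45 min after adding 0.125 microM importin beta to 50 nM Rango biosensor preincubated 5 min with compound (room temperature, PBS with DTT, Tween-20, BSA). No-importin wells as positive control.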
# Rango dissoc inh = inhibitors of RanGTP-induced Rango-importin beta complex dissociation; O95149+P62826; Biochemical FRET Rango-importin beta, RanGTP-induced dissociation; Potency, µM (doses to about 46.1 µM), for inactives: at the top dose activity change, negative = inhibition; 340,000 compounds, 0.071% hits; active means falling FRET ratio curve, often poorly fitted, with flat reads before Ran was added; inconclusive means other falling curves, or compound fluorescence or quenching; inactive means flat or rising ratio curve;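 note: potency is the fitted concentration of half-maximal effect; % of control where 0% means no effect; nearly all actives have a fitted effect of over 45% in size; -100% = wells without RanGTP and RCC1; the record marks most hits as doubtful in a second field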
#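 Rango (0.1 uM)–importin beta (0.25 uM) complex; RanGTP-RCC1 trigger; 45 min RT; CFP/YFP FRET read.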
# * marks the source's active call; other numbers are inactive results; ? = inconclusive; · = not tested or not shown; & = joins results of further samples. An excerpt. The share of hits here may be higher or lower than overall.
Rango dissoc inh	structure	GLA inh pH 4.5	Rango-impB inh	miR-21 FLuc
-12%	COc1cc(-c2nnc(SCc3c(F)cccc3Cl)o2)cc(OC)c1OC	-4	5.2%	-14%
5%	Cc1cc(NC(=O)c2cccnc2)ccc1NC(=O)c1ccco1	2	?	-8%
0%	O=C(Nc1ccc(F)cc1)c1ccccc1NC(=O)C1CC=CCC1C(=O)O (stereo not given)	·	-3.6%	-22%
-12%	Cc1ccc(C)c(OCCC(=O)NNC(=O)c2ccccc2)c1	·	0.3%	·
16%	C=CCNC(=S)Nc1ccc(C(N)=O)cc1	1	-0.3%	0%
10%	CC1CCCCN1S(=O)(=O)c1ccc(S(=O)(=O)N2CCN(c3ccccc3)CC2)cc1 (stereo not given)	4	-6.1%	-2%
1%	O=C(Cn1ccc(C(F)(F)F)n1)N/N=C/c1cccs1	-1	-1.6%	-7%
3%	Cc1ccc2ccccc2c1COC(=O)c1nonc1N	-9	-2.0%	-4%
14%	Cc1nn(-c2ccc(N3CCOCC3)nn2)c(C)c1CCC(=O)NCc1ccc(F)cc1	·	-1.2%	-6%&-7%
2%	COc1ccc([N+](=O)[O-])cc1NC(=O)C1CCCO1 (stereo not given)	5	0.7%	4%
-8%	O=C1C(=O)N(CCN2CCOCC2)C(c2ccc(F)cc2)/C1=C(/O)c1ccc(S(=O)(=O)N2CCOCC2)cc1 (stereo not given)	·	-2.0%	0%
1%	C=CCC1NS(=O)(=O)OCC1NC(=O)OCC(Cl)(Cl)Cl (stereo not given)	·	-0.3%	-3%
?	Oc1ccc(N=C/C=C/c2cccc(Br)c2)cc1-c1nc2ccccc2s1	0	?	-49%
-1%	COc1cc2c(cc1C1NC(=S)NC(C)=C1C(=O)N(C)C)CCCC2 (stereo not given)	2	4.6%	0%
3%	CS(=O)(=O)c1nc(S(=O)(=O)c2ccc(Cl)cc2)c(N2CCC(C(N)=O)CC2)s1	·	-0.4%	9%
1%	CC1(C)CC2CC(C)(CN2C(=O)COc2cccc3ccccc23)C1 (stereo not given)	-4	0.7%	-1%
-5%	Cn1cccc1C(C(=O)NC1CCCCC1)N(C(=O)Cc1cccs1)c1ccc2c(c1)OCO2 (stereo not given)	7	-0.6%	2%
-4%	CCNc1nc(SCCOc2ccc(Cl)cc2Cl)nc(N(C)C)n1	-2	0.1%	5%
-5%	O=C(CCCN1C(=O)/C(=C/c2ccccc2)SC1=S)Nc1ccc(O)cc1	-3	1.3%	?
-5%	CCOC(=O)N1CCN(C(=O)C2COc3ccccc3O2)CC1 (stereo not given)	-6	1.2%	0%

# Additional structures:
Rango dissoc inh	structure	GLA inh pH 4.5	Rango-impB inh	miR-21 FLuc
4%	CCOc1ccccc1-n1c(SCC(=O)NC)nnc1-c1ccco1	3	0.0%	0%
-12%	Cc1cc(C)cc(N(CCC#N)C(=O)CSc2n[nH]c(N)n2)c1	·	9.8%	·
1%	Cc1ccc(CNC(=O)CSc2nc(=O)n3cccc(C)c3n2)cc1	·	-2.8%	·
-3%	CCc1ccc(OCC(=O)Nc2ccc3c(c2)COC3=O)cc1	8	-1.7%	-14%
2%	Cc1ccc(-n2c3c(cc(C(=O)NCc4ccco4)c2=O)C(=O)CC(C)(C)C3)cc1	1	0.1%	-15%
2%	Cc1[nH]n(-c2ccc(Cl)c(Cl)c2)c(=O)c1CCO	2	5.8%	-9%
-2%	CCOC(=O)N/N=C(\C)c1ccc(C)c([N+](=O)[O-])c1	1	0.6%	-34%
-14%	CCCCCCC1CCC(C(=O)Nn2c(C)nc3ccccc3c2=O)CC1 (stereo not given)	6	-0.5%	1%
-4%	COc1ccc2cc(CN(CCO)C(=O)c3ccc(Br)cc3)c(=O)[nH]c2c1	-6	2.4%	3%
-13%	O=C(O)c1ccc2c(=O)n3c(nc2c1)/C(=C/c1ccc(C(F)(F)F)cc1)CC3	·	0.5%	-6%
-1%	CCOc1ccccc1OCCOCCN1CCN(Cc2ccccc2)CC1	7	0.8%	4%
1%	O=C(NC1CCCCCC1)c1ccc(CN2CCOCC2)cc1	-1	1.3%	-45%
31%	CCN(CC)C(=O)COc1ccc2oc(C)c(C(=O)OC)c2c1	3	0.9%	-4%
3%	COc1ccc(-c2csc3ncnc(N4CCN(S(=O)(=O)c5ccc(C(C)=O)cc5)CC4)c23)cc1	·	1.5%	·
-2%	COc1ccc(CNC(=O)C(=O)NCC(c2ccco2)N2CCOCC2)cc1 (stereo not given)	0	-0.3%	-2%
-5%	CCc1cc(=O)oc2cc(C)cc(OCC(=O)NCc3ccncc3)c12	·	0.8%	-1%
6%	O=C(O)COc1ccc2c3c(c(=O)oc2c1)CCC3	-11	-0.1%	-6%
2%	Cc1cc(C)c(OCC(=O)OC(C)C(=O)NCc2ccccc2)c(C)c1 (stereo not given)	·	4.8%	·
11%	COc1ccc(NC(=S)c2ccc3ccccc3n2)cc1	·	0.9%	-55%
-7%	CN(C)CCn1c2c(c(SCC(=O)Nc3ccc4c(c3)OCCO4)nc1=O)CCCC2	·	-0.7%	·

# The results go on.
Rango dissoc inh	structure	GLA inh pH 4.5	Rango-impB inh	miR-21 FLuc
-8%	Cc1ccc(CC(=O)N2CCN(S(=O)(=O)c3ccccc3)CC2)cc1C	·	-1.9%	·
10%	CCOC(=O)CN(C(=O)c1snc(C(N)=O)c1N)C(C(=O)NCCC(C)C)c1ccc(F)cc1 (stereo not given)	·	-4.3%	1%
11%	O=C1c2ccccc2S(=O)(=O)c2cc(C(=O)N3CCN(c4ccccc4)CC3)ccc21	·	-2.2%	·
1%	CCn1c(C)c(C)c2cc(C(=O)NCCc3ccco3)ccc21	·	-2.0%	-31%
2%	CC(C)(C)NC(=O)C(=O)NNC(=O)COc1ccc(Br)cc1	5	1.6%	-2%
-6%	CC(NC(=O)c1cc2cc(Cl)ccc2oc1=N)c1ccccc1 (stereo not given)	·	-3.6%	-8%
2%	O=C(c1cc2ccccc2o1)N1CCN(c2ncccn2)CC1	·	-1.7%	·
?	CC(C)CC(=O)NC(=S)Nc1ccccc1N1CCCC1	1	-0.3%	-1%
7%	C=CCNC(=O)c1c(-c2c(F)cccc2Cl)noc1C	1	0.4%	0%
?	C[C@]12C(=O)N(c3ccc(Cl)cc3)C(=O)N1[C@H]1c3ccccc3OC[C@@H]1[C@H]2c1ccccc1	·	-3.3%	14%
4%	O=C(C1CCN(c2nnc(-n3cccc3)s2)CC1)N1CCOCC1	-10	1.3%	-11%
-13%	COc1ccc(OCC(O)Cn2c(N)nc3c2c(=O)[nH]c(=O)n3C)cc1 (stereo not given)	-1	-1.3%	-1%
6%	CC1N(C)c2cc(NC(=O)c3ccco3)ccc2C1(C)C (stereo not given)	-1	?	-9%
1%	COc1cc(C[C@@H](C)[C@@H](C)Cc2ccc(O)c(OC)c2)ccc1O	·	-2.0%	·
?	O=C(Nc1nccs1)c1cccc(N2C(=O)c3cccc4c([N+](=O)[O-])ccc(c34)C2=O)c1	-9	?	1%
-5%	Nc1ccccc1C(=O)NNc1c2ccccc2nc2ccccc12	-1	-2.4%	-6%
1%	COCCNC(=O)CN1C(=O)NC2(CCCc3ccccc32)C1=O (stereo not given)	·	-0.1%	1%
0%	Cn1c(C(=O)c2ccncc2)cc2ccccc21	1	2.0%	-18%
1%	CC12CCC(=O)N1C(C(=O)N1CCN(c3ccc(C(F)(F)F)cc3[N+](=O)[O-])CC1)CS2 (stereo not given)	·	7.0%	1%
?	O=C(O)c1ccc(N/N=C/C=C/c2ccccc2)cc1	-2	?	-58%

# Next entries.
Rango dissoc inh	structure	GLA inh pH 4.5	Rango-impB inh	miR-21 FLuc
·	Cc1cc2oc(=O)cc(Cn3nnc(-c4ccc(Cl)cc4)n3)c2cc1C(C)C	4	·	-1%
-10%	O=C1Nc2ccccc2S/C1=C/Nc1cccc(Cl)c1	-3	?	-38%
11%	O=C1C2=C(Nc3ccccc3SC2c2ccco2)c2ccccc21 (stereo not given)	-6	0.1%	-5%
2%	COc1ccc(OC)c(NC(=O)CCNC(=O)Cn2ccc3ccccc3c2=O)c1	·	-0.5%	0%
3%	COc1ccc(C(=O)CN2C(=O)NC3(CCCCC3)C2=O)cc1OC	-14	-2.3%	0%
-3%	CCC(c1c(C)n(C)n(-c2ccccc2)c1=O)c1c(C)n(C)n(-c2ccccc2)c1=O	-3	-0.2%	1%
?	O=C(c1cc2nc(-c3ccco3)cc(C(F)(F)F)n2n1)N1CCCCCC1	-2	?	0%
-13%	Cc1cc(C(F)(F)F)nn1CC(=O)NNC(=S)Nc1cccc(Cl)c1	4	-1.5%	-1%
7%	COC(=O)[C@]1(Cc2ccccc2)N[C@H](CN(C)C(C)=O)[C@@H]2C(=O)N(C)C(=O)[C@@H]21	·	0.5%	·
-2%	Nc1cc2c(cc1[N+](=O)[O-])OCCOCCOCCO2	-5	2.4%	-2%
2%	CN(CC(=O)NCCCN1CCOCC1)S(=O)(=O)c1cc(Cl)ccc1Cl	·	6.1%	2%
1%	CC(C)(C)CC(=O)NC(=S)N1CCCCCC1	6	0.0%	-1%
10%	COc1ccc(NC(=O)CSc2nnc(C)n2Cc2ccccc2)cc1	-16	-0.2%	1%
1%	CC(C)(O)C#Cc1ccc(C(=O)NCc2cccs2)s1	-5	-2.8%	-17%
11%	COC(=O)C1CCN(C(=O)/C(C)=C\c2ccccc2)CC1	·	1.1%	-32%
8%	Clc1ccc(OCCn2c(-c3ccco3)nc3ccccc32)cc1	-4	-1.0%	-5%
0%	OCc1ccnc(Cl)c1	-2	-1.2%	-3%
7%	O=C(CCSc1ccccc1)NC1CCCCCC1	7	-1.0%	-17%
?	O=C(CSc1ncccn1)NCc1cccs1	-6	-5.1%	-21%
-6%	O=C(COc1ccc(Cl)cc1[N+](=O)[O-])NC1CCCCC1	-3	-3.9%	-23%

# Six compounds out of the list above, sorted by their value in miR-21 FLuc, ascending.
Rango dissoc inh	structure	GLA inh pH 4.5	Rango-impB inh	miR-21 FLuc
11%	COC(=O)C1CCN(C(=O)/C(C)=C\c2ccccc2)CC1	·	1.1%	-32%
-6%	O=C(COc1ccc(Cl)cc1[N+](=O)[O-])NC1CCCCC1	-3	-3.9%	-23%
?	O=C(CSc1ncccn1)NCc1cccs1	-6	-5.1%	-21%
0%	OCc1ccnc(Cl)c1	-2	-1.2%	-3%
?	O=C(c1cc2nc(-c3ccco3)cc(C(F)(F)F)n2n1)N1CCCCCC1	-2	?	0%
-3%	CCC(c1c(C)n(C)n(-c2ccccc2)c1=O)c1c(C)n(C)n(-c2ccccc2)c1=O	-3	-0.2%	1%

# (list continues)
Rango dissoc inh	structure	GLA inh pH 4.5	Rango-impB inh	miR-21 FLuc
-1%	COc1ccc(C2Nc3ccccc3C(=O)N2NS(C)(=O)=O)c(OC)c1 (stereo not given)	·	3.6%	-1%
-5%	COCCNc1ncnc2c1cnn2Cc1ccc(Cl)cc1	-4	1.5%	12%
-9%	O=C(NCc1ccccc1)c1cc[n+]([O-])cc1	·	4.2%	0%
0%	COc1cccc(CN2CCNC(=O)C2CC(=O)NC2CCCCCCC2)c1 (stereo not given)	·	?	3%
-5%	OCC[C@H]1C[C@H](O)[C@@H](O)[C@]2(CCc3ccccc3O2)O1	·	-3.7%	·
-2%	CC(=O)/C(=C\N(C)C)Sc1ccc(C)cc1	7	-1.8%	1%
2%	COCCCn1c(=O)c2ccccc2n(CC(=O)NC2CCCCC2)c1=O	·	0.1%	-3%
0%	Cc1ccccc1N=Nc1c(C)[nH]n(C(N)=S)c1=O	-7	2.1%	-44%
9%	CC(C)(C)c1ccc(C(=O)NCc2nnc(SCC(=O)NC3CCCCC3)o2)cc1	·	0.0%	3%
-9%	CCOC(=O)c1c(O)cc(C)[nH]c1=O	-5&-1	3.2%	0%&-1%
13%	CC1(C)S[C@@H]2[C@H](NC(=O)[C@H](N)c3ccc(O)cc3)C(=O)N2[C@H]1C(=O)O	4	1.8%	-3%
-1%	CCC(=O)Nc1nc(-c2ccccc2)ns1	3	-0.7%	-38%
0%	Cc1ccc(/C=C/C(=O)NCCCc2ccccc2)cc1	-1	-0.4%	-16%
·	N=C1c2ccccc2CN1c1ccc(N2CCOCC2)c(S(=O)(=O)Nc2ccc(Cl)cc2)c1	-12	·	-2%
-3%	CCOc1ccccc1OCCCC(=O)NNC(=O)c1nn(C)c(=O)c2ccccc12	·	1.8%	·
